UCH37 inh – inhibitors of human deubiquitinating enzyme UCH37; inhibition, % (concentration not given with the values); purified proteasome/UCH37, Ub-AMC cleavage fluorescence; 330,000 tested, 0.33% active;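 active = mean of two replicates above 20%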;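 also: 0% = compound-free wells with enzyme and 100% = wells lacking proteasome; stock transfer was 100 nL into about 20 µL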
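assay system = human UCH37 enzyme supplied as purified proteasome complex | amount = proteasome at 0.15 nM in the dispensed enzyme solution | schedule = 30 min compound-proteasome preincubation then 25 min substrate reaction, room temperature | measured by = fluorescence, ex 355 nm, em 460 nm | benchmarks = no-proteasome wells (full inhibition) and compound-free wells (no inhibition)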
A1 inh – inhibitors of the anti-apoptotic protein A1, read as caspase activation. MEF A1-2A-BIM cells, Caspase-Glo 3/7 luminescence, 3 h; percent of clofoctol response, vehicle zero. caspase activation, % (test concentration not listed). 330,000 tested, 0.066% active;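 active = over half of replicate activation scores above 10%, or exactly half above 10 with the replicate mean above 10; inconclusive = replicate mean below 10 yet half the replicates above 10; inactive = over half of replicates below 10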;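 also: wells of about 30 µL received 50 nL stock; many hits fall short of the cut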
LANA-H2B inh – blocks KSHV LANA binding to histone H2A/H2B; 320,000 tested, 0.6% active; inhibition, % (test concentration not listed); cell-free LANA-H2A/H2B peptide, fluorescence polarization; in the data active = inhibition mostly above about 10%, no sharp cut-off; inactive = mostly below about 6.7%;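 also: stock transfer was 7.5 nL into about 10 µL; 0% = median of vehicle wells and 100% = median of positive control wells; one replicate is shown; the record names a cut of 25% in any replicate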
B2AR ag – agonists of human beta-2 adrenergic receptor inducing internalization. P07550. Am2.2-beta2AR cells, FAP receptor internalization, flow cytometry; reference of the scale not given here. response, % (concentration not given with the values). 340,000 tested, 0.43% active. AID 504454;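 active = response above a set limit, near 3 SD of response in nonfluorescent compounds, cut at about 42% in these data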;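 also: stock transfer was 100 nL into about 11 µL; a reference agonist was the positive control; negative values mostly stem from fluorescent compounds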
Target sequence (P07550 whole entry, looked up): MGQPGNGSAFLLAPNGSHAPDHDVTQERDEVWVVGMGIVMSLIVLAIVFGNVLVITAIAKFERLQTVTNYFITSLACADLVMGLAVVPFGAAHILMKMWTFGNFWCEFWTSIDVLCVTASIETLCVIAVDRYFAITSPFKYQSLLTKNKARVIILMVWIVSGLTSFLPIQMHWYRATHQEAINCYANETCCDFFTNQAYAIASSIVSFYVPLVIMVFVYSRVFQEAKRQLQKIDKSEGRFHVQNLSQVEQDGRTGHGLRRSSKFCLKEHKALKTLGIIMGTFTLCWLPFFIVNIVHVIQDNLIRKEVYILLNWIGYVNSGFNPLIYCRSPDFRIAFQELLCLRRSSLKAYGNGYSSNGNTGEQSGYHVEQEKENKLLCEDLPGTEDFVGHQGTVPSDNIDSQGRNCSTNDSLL
Vif A3G – HIV-1 Vif–A3G interaction blockers – biochemical, TR-FRET, GST-Vif 1-94, biotin-A3G peptide, dose response retest, primary screen (AID 1117319); inhibition, %; hits with a dose series show IC50 in µM; 260,000 tested, 0.57% active; TR-FRET GST-Vif / biotin-A3G peptide binding; higher % means a stronger effect; test concentration not given here; strong numbers were not always called active;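 active = above the screen mean plus three standard deviations and confirmed in dose response; inconclusive = results disagree or hit not tested in dose response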;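 also: Vif residues 1-94 fused to GST binding biotinylated APOBEC3G peptide 110-148; 0% = full assay without inhibitor and 100% = GST in place of GST-Vif; retest series ran down from 100 µM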
HNF4A DNA FP – change in binding of human HNF4 alpha to DNA; HNF4a-FITC DNA binding, fluorescence polarization, 1 h; P41235; activity change, % at 10 µM; 360,000 tested, 0.3% active; AID 1224865; in the data active = activity change above about 30%, passing the limit was not always enough;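 also: controls were the assay level and a saturating level of protein; the project sought stronger binding though the title names inhibitors; some compounds called inactive have numbers as strong as hits; positive values seem to mean higher polarization but the record does not say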
Target sequence (P41235 whole entry, looked up): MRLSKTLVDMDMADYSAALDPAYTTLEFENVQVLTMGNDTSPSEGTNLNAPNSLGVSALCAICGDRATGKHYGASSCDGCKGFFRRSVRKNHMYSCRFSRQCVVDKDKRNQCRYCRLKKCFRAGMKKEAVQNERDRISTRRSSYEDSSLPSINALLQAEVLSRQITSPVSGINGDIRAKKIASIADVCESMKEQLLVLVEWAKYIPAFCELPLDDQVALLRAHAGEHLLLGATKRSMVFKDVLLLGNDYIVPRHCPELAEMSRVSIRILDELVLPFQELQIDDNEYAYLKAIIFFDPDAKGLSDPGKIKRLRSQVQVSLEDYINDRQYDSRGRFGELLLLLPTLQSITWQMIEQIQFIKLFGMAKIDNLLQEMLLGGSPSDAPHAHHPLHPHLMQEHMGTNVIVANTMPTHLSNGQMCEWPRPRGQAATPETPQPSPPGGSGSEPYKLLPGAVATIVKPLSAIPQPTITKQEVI
Ecoli growth – E. coli growth inhibition; 330,000 tested, 0.21% active; AID 1053175; OD600 absorbance (no concentration beside the values); Escherichia coli growth, OD600, 23 h; hits give low values;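 active = OD600 absorbance below the run mean of sample wells minus 3.6 SD, in any replicate, cut at about 0.56 in these data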;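 also: stock transfer was 300 nL into about 60 µL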
The depositor's hits bear a star; ? = inconclusive; . = no result given; & = joins results of further samples.

Screens in order: HNF4A DNA FP, B2AR ag, LANA-H2B inh, A1 inh, Ecoli growth, UCH37 inh, Vif A3G
1: COC(=O)[C@@]12CCCCN1[C@H](c1ccc(-c3cccc(Cl)c3)c(OC)c1)[C@H]1C(=O)N(C)C(=O)[C@H]12
    0.1, -3.5, 0.6, 1.4, ., ., .
2: O=C(Cn1cnc([N+](=O)[O-])c1)Nc1ccccc1C(F)(F)F
    -1.5, 9.0, -5.8, 0.6, ., ., 1.5%
3: CC(=O)c1ccc(NS(=O)(=O)c2ccc3c(c2)N(C)CCO3)cc1
    3.1, -8.4, -2.1, 0.2, 0.686, 6.8, 6.1%
4: O=C(Oc1ccc(Cl)c2cccnc12)N1CCOCC1
    10.7, -2.4, 0.3, -0.1, 0.666, -5.7, -2.3%
5: Cc1cccc2sc(NC(=O)C3=NN(c4ccccc4)C(=O)CC3)nc12
    -0.4, 6.7, -0.1, -0.3, 0.725, 0.0, -1.9%
6: CCOC(=O)CN1C(=O)COc2ccc(C(C)(C)C)cc21
    6.2, -6.4, -5.0, 0.1, 0.646, 2.6, 4.1%
7: CCCCn1c(-c2cccs2)nc2oc3ccccc3c(=O)c2c1=O
    0.2, -15.4, 4.2, 0.7, 0.648, 6.3, -24.5%
8: CCc1cccc(NC(=O)COC(=O)/C=C/c2cccs2)c1
    -1.4, 0.3, -3.5, -0.2, 0.633, 3.2, -5.7%
9: CCN(CC)S(=O)(=O)c1ccc(S(=O)(=O)NCc2cccs2)cc1
    -4.1, 10.6, 0.0, -0.3, 0.644, 2.3, .
10: CCOC(=O)C1(CCOc2ccccc2)CCN(C(=O)CCSC)CC1
    -1.4, 2.8, -0.6, 0.1, ., ., 1.6%
11: CC1=C([N+](=O)[O-])C(c2ccccc2C(F)(F)F)NC(=O)N1C (stereo not given)
    -0.5, -1.7, 30.0*, 1.0, 0.72, 9.0, -4.0%
12: O=C(CCC1CCCC1)NCCS(=O)(=O)N1CCN(c2ccc(F)cc2)CC1
    4.4, 2.6, -0.3, -0.1, 0.656, 1.3, 4.6%
13: C/C(Cn1cnc([N+](=O)[O-])n1)=N\NC(=O)c1ccncc1
    -3.2, 0.9, 3.0, -0.1, ., ., 4.0%
14: CCOC(=O)C1CCN(S(=O)(=O)c2ccc3c(c2)CCN3C(=O)C2CCC2)CC1
    2.4, 0.4, -1.7, 0.9, 0.716, 3.6, -7.0%
15: CC1CN(c2ccc(NS(=O)(=O)c3ccccc3)cc2C(=O)O)CC(C)O1 (stereo not given)
    1.7, -1.8, 1.9, 0.0, 0.672, 6.5, -4.8%
16: O=C(CN1CCCCC1)NCC1(c2ccccc2)CCCC1
    -0.2, -9.8, 8.2, 0.4, 0.69, 2.3, .
17: CC(=O)Nc1ccc(NC(=O)C(C)n2nc([N+](=O)[O-])c(Br)c2C)cc1 (stereo not given)
    1.8, -3.1, 4.1, -0.5, 0.687, 5.7, -0.6%
18: C=C[C@@H]1c2cc(C)ccc2N(S(=O)(=O)c2ccc(C)cc2)[C@H](c2ccccc2C(F)(F)F)C1(C#N)C#N
    2.3, 6.0, 5.3, -0.8, ., -0.1, .
19: O=C1CC(=O)N(Cc2ccco2)C(=O)N1
    -5.0, 9.9, -4.2, 0.5, 0.718, 6.1, 4.49µM*
20: Clc1ccc(-c2cn3cc(Br)ccc3n2)cc1Cl
    -1.5, 4.2, 4.3, -8.2, 0.685, 2.4, .
21: CCCC(=O)NCc1ccc2c(c1)cc(C)n2C
    -4.6, -4.0, -1.3, 0.6, 0.678, 1.8, ?
22: Cc1nnc(SCC(=O)Nc2ccc(F)cc2)n(N)c1=O
    -1.4, -0.6, -12.1, -0.8, 0.729, 4.5, -10.7%
23: O=S(=O)(NCC(c1ccc2c(c1)OCO2)N1CCOCC1)c1ccccc1 (stereo not given)
    2.4, -5.6, 0.2, 0.1, ., ., .
24: COc1ccc(NC(=S)NC2CCCC2)c(OC)c1
    -1.5, -1.9, -2.4, 0.8, 0.663, 1.9, .
25: CC(=O)Nc1ccc(C(=O)OC2CCCCC2=O)cc1 (stereo not given)
    -1.1, 0.8, 2.6, 2.0, 0.701, 0.5, 4.3%
26: CCOC(=O)c1ccccc1NC1c2ccccc2C(=O)N1c1ccc(C)cn1 (stereo not given)
    -2.9, -0.6, -3.1, ., 0.743, -19.4, 3.0%
27: O=C(NCCC(=O)N1CCN(c2ncccn2)CC1)c1ccccc1Cl
    5.0, -5.4, 2.8, 0.1, 0.758, 4.8, 25.8%
28: COc1ccccc1N1CCN(C(=O)Nc2cccc(Cl)c2)CC1
    -1.5, 6.3, 1.7, 0.3, 0.663, 2.5, 3.1%
29: O=C(CN1CCN(CC(=O)Nc2ccccc2C(F)(F)F)CC1)Nc1ccccc1F
    2.3, -2.7, -0.1, 0.5, 0.808, -0.6, -8.5%&-3.8%
30: COc1ccc(/C=C/C(=O)c2cc(F)ccc2OC(=O)c2ccc(OC)c(OC)c2)cc1OC
    -0.7, 12.0, 2.5, -0.1, 0.709, -0.8, 6.5%

Next entries.
Screens in order: HNF4A DNA FP, B2AR ag, LANA-H2B inh, A1 inh, Ecoli growth, UCH37 inh, Vif A3G
31: COc1cccc(OC)c1C(=O)OCC(=O)NCc1ccco1
    -1.2, -2.9, -10.7, 0.6, 0.636, 3.1, 5.0%
32: Cc1oc(C)c(S(=O)(=O)NCc2cccs2)c1C(=O)O
    0.4, 0.1, 4.2, 0.9, 0.674, 0.7, -1.3%
33: Cc1ccc(/C=C/S(=O)(=O)NCC(=O)OCC(=O)Nc2c(F)cccc2F)cc1
    0.3, 5.8, -0.7, 0.2, 0.649, 3.7, -4.8%
34: O=C(COC(=O)c1ccc(F)c(S(=O)(=O)N2CCOCC2)c1)NCc1ccc(Cl)cc1
    -2.2, 8.5, -1.9, 0.1, 0.655, 1.6, .
35: CCC1(c2ccccc2)C(=O)N(C(=O)OC(C)(C)C)N1C(=O)OC(C)(C)C (stereo not given)
    2.2, 8.2, 1.6, 0.5, 0.682, 2.6, .
36: CCCC(=O)NCC(c1cccs1)S(=O)(=O)c1ccc(C)cc1 (stereo not given)
    0.1, -4.3, 2.9, 0.6, 0.646, 1.0, .
37: Cc1cc([N+](=O)[O-])cc([N+](=O)[O-])c1NCC(C)C
    0.9, -3.6, -2.8, 1.3, 0.67, 6.1, 6.6%
38: O=C(CN1C(=O)CSCC1=O)NCc1ccc(F)cc1
    -0.8, 4.9, 7.6, 0.4, 0.667, -0.2, .
39: CC1=C(C(=O)O)N2C(=O)C(NC(=O)c3nn(C)c(C)c3Cl)C2SC1 (stereo not given)
    -1.6, 8.5, -3.0, 0.0, 0.691, 5.6, .
40: COc1ccc(C)cc1S(=O)(=O)N(CC(=O)O)c1ccc(F)cc1
    0.8, 8.6, 2.0, 1.9, 0.675, 1.3, 0.1%
41: O=C(C(c1ccccc1)c1ccccc1)N1CCN(CCN2C(=O)c3cccc4cccc(c34)C2=O)CC1
    -4.6, 0.2, -4.8, -1.1, 0.732, 1.9, -2.8%
42: O=C(CSc1nnc(Nc2ccccc2F)s1)Nc1cccc(S(=O)(=O)N2CCCCC2)c1
    8.5, -4.5, -1.0, -0.8, 0.729, 2.3, 19.2%
43: COc1cccc(CNC(=O)COC(=O)CN(C)S(=O)(=O)c2ccc(NC(C)=O)cc2)c1
    -2.0, -1.8, -8.0, 0.1, 0.698, 1.3, 2.5%
44: CCCC(O)(c1ccccc1)C(c1ccccc1)c1ccccn1 (stereo not given)
    2.7, -2.3, ., ., 0.726, 3.9, -3.1%
45: Cc1ccccc1NC(=O)C(NS(=O)(=O)c1ccc2c(c1)c(=O)n(C)c(=O)n2C)c1ccccc1 (stereo not given)
    -0.7, -8.5, -2.9, 0.5, 0.709, 5.4, -3.8%
46: O=C(CSc1ccc(Cl)cc1)NC(=O)NCc1ccco1
    0.6, 0.3, -2.0, 1.8, 0.613, 4.6, 24.3%
47: O=C(O)C1C2C=CC(C2)C1C(=O)NCc1ccccc1F (stereo not given)
    -0.1, -1.3, 2.6, -1.3, 0.699, 1.8, .
48: COc1ccccc1OCC(=O)Nc1ccncc1
    -1.1, -0.4, 1.3, 0.1, 0.667, 2.5, .
49: O=C(CN1C(=O)c2ccccc2C1=O)NCc1ccc(F)cc1
    0.2, 0.7, -1.7, -0.1, 0.658, -1.7, .
50: O=C(NCc1ccccn1)C(=O)NCC1OCCN1S(=O)(=O)c1ccc(Cl)cc1 (stereo not given)
    -3.0, -2.9, -0.1, ?, ., ., .
51: CCOC(=O)c1oc2ccc(Cl)cc2c1NC(C)=O
    -1.7, 14.0, -2.0, 1.8, 0.67, -0.1, .
52: CN(C(=O)COC(=O)c1ccc([N+](=O)[O-])cc1N)c1ccccc1
    42.5*, -6.7, -7.0, 0.2, 0.67, -2.6, 4.1%
53: O=C(/C=C/c1ccccc1Cl)Nc1ccccc1
    -2.4, 13.8, -6.2, -7.3, 0.649, 1.7, -7.3%
54: COC(=O)C1=C(C)N(c2ccc(C)c(C)c2)/C(=C/c2cccs2)C1=O
    -4.9, 2.8, 4.1, 1.5, 0.703, 0.8, -0.5%
55: COc1ccc(C)cc1NC(=O)c1sc2ncn(CC(=O)N3CCCCC3)c(=O)c2c1C
    -0.8, -1.8, -2.2, 0.0, 0.721, -21.2, .
56: COc1ccc(-n2c(Cc3cccn3C)nnc2SCC(=O)Nc2ccc(F)cc2F)cc1
    3.3, -3.3, -5.7, 1.2, 0.721, 2.2, 18.8%&-1.8%
57: Nc1ccc(OCc2ccccc2)cc1
    2.8, 3.3, -3.8, -2.4, 0.74, 6.1, 0.3%
58: Cc1cc(C)c2c(-n3cccc3)c(C(=O)NNS(=O)(=O)c3ccc(Cl)cc3)sc2n1
    0.7, 5.8, -3.4, -0.1, 0.658, 1.4, 1.2%
59: O=C(NCc1cccc(F)c1)c1ccc(N2C(=O)Cn3c(cc4sccc43)C2=O)cc1
    2.2, -7.9, -0.1, 0.5, ., 2.1, -14.2%
60: C=CCNc1nc(C(=O)OCC(=O)c2ccc(F)cc2)cs1
    3.4, 0.2, -0.3, 0.3, 0.681, 0.6, -4.3%

Additional compounds follow.
Screens in order: HNF4A DNA FP, B2AR ag, LANA-H2B inh, A1 inh, Ecoli growth, UCH37 inh, Vif A3G
61: O=C(CSc1ccsc1[N+](=O)[O-])NCCc1ccc(Cl)cc1
    -0.5, -3.0, -1.9, 1.1, 0.743, 0.2, -1.2%
62: CN(CC(=O)Nc1ccccc1N1CCCC1)S(=O)(=O)c1ccc(F)cc1
    3.2, -7.4, -0.7, 0.1, 0.708, 1.9, -4.8%
63: COc1ccc(CNC(=O)CN2C(=O)C(C)N(c3ccc(C)cc3)C2=O)cc1 (stereo not given)
    1.0, -1.0, 6.4, 1.4, 0.719, 2.2, 7.4%
64: N/C(=N\OC(=O)CCCc1ccccc1)c1ccccc1Cl
    2.4, -9.8, 4.0, -0.2, 0.699, -1.3, -1.7%
65: COc1ccc(OC)c(-c2csc(NC(=O)c3ccccc3F)n2)c1
    1.1, -3.3, -4.1, -0.4, 0.669, -1.6, -3.0%
66: CC(C)=CC(=O)OCC(=O)Nc1ncc(Cl)c(C)c1Cl
    1.6, 3.5, -3.1, -0.3, 0.755, -0.3, ?
67: CCN1C(=O)C(CC(=O)Nc2ccc(OC)cc2)N(Cc2cccs2)C1=S (stereo not given)
    -1.5, 14.3, -4.2, 0.0, 0.66, -0.7, -1.9%

High-throughput results deposited in PubChem BioAssay by several laboratories.
